BJeLR viability = kills HRASV12-expressing BJeLR cells. inhibition, % (no concentration beside the values). BJeLR (HRASV12) viability, CellTiter-Glo ATP luminescence, 48 h; reference of the scale not given here. AID 1554. actives 0.17% (n = 300,000);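 active means replicate mean above 50%; inconclusive means above 50% but judged a plate artefact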;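 further: 50 nL library stock added to about 25 µL; numbers are from one replicate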
RN4220 kill = S. aureus RN4220 growth inhibition. OD600, 16 h. inhibition, % (no concentration beside the values). actives 0.33% (n = 330,000);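 active means z-score of -3 or lower and OD600 up to 0.18 on both plates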;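 further: plate controls were untreated cells for no effect and reference antibiotic for full effect; stock transfer was 100 nL into about 80 µL; one replicate is shown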
Bead autofluor = compound fluorescence in toxin protease inhibitor counterscreen; compound autofluorescence counterscreen, microsphere flow cytometry; hits give high values; fluorescence intensity (no concentration beside the values); actives 3.1% (n = 360,000); AID 624483;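 active means at least 3 SD above the mean of all compounds, about 16000 in these data; inconclusive means too few beads counted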;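 further: 100 nL of 1 mM stock went into each well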
Mtb hypoxia rep = inhibitors of hypoxia-regulated fluorescent reporter in Mycobacterium tuberculosis; fluorescence inhibition, % (concentration not given with the values); M. tuberculosis hypoxia-regulated fluorescent reporter, fluorescence; actives 0.1% (n = 300,000);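 active means 35 to 45% if threefold the growth effect, above 45% if 1.5-fold the growth effect; inactive means the rest, general growth blockers included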;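 further: wells of about 50 µL received 100 nL stock; 0% = vehicle wells and 100% = reference inhibitor wells; whole bacteria with a GFP reporter of the hypoxia response; strong numbers were not always called active; many hits fall short of the cut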
ugtP null kill = growth inhibition of S. aureus ugtP deletion strain; S. aureus RN4220 ugtP deletion, OD600 growth, 16 h; some inactives read as strong as hits; growth inhibition, % (concentration not given with the values); actives 0.54% (n = 330,000);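 active means z-score under -3 and OD600 up to 0.15 on both plates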;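 further: plate controls were untreated wells for no effect and antibiotic for full effect; wells of about 80 µL received 100 nL stock; the first replicate is given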
PrP UTR inh = inhibition of PrP 5' UTR reporter expression | inhibition, % (no concentration beside the values) | AID 488862 | actives 0.35% (n = 340,000) | cell-based PrP 5' UTR mRNA reporter, plate reader;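 active means every replicate at 50% or more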;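 further: 0 = median of the neutral control wells; tested in H4 reporter cells; numbers are from one replicate; inactives centre near -14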
Mtb hypoxia rep growth = further read-out of Mtb hypoxia rep, marked with its call; growth inhibition, %; measured here: M. tuberculosis growth (absorbance);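 0% = vehicle and 100% = reference antibiotic; read after six days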
Active calls of the source: *; ? = inconclusive; . = no result given.

SMILES	BJeLR viability	RN4220 kill	Bead autofluor	Mtb hypoxia rep	Mtb hypoxia rep growth	ugtP null kill	PrP UTR inh
NC(=O)c1nsc(C(=O)N(c2ccc(F)cc2)C(C(=O)NC2CCCC2)c2ccncc2)c1N (stereo not given)	8	0.2	5469	-7	8	6	-13
O=C(c1ccccc1)N1CCN(C(=O)c2nn3c(C(F)(F)F)cc(-c4ccccc4)nc3c2Br)CC1	-12	3.4	3598	7	11	13	-4
O=C(/C=C/c1cn(CC(O)CN2CCCCC2)c2ccccc12)c1cccs1 (stereo not given)	5	0.7	3686	6	17	1	-3
CCOC(=O)N1CCN(C(=O)c2ccc(CS(=O)(=O)c3c(Cl)cccc3Cl)o2)CC1	2	.	4242	.	.	.	-5
CC(/C=C1\SC(=S)N(NC(=O)c2cccc(O)c2)C1=O)=C\c1ccccc1	5	37	8968	6	-8	-2	-26
CSc1ncc(C(=O)Nc2ccccc2Cl)c(C)n1	-1	9.5	4217	15	8	8	-27
Cc1ccccc1N=C1SCC(=O)N1Cc1ccccc1	0	4.4	2423	4	11	16	-7
C=C(C)C1CC=C(C)/C(=N/NC(=O)c2ccc(NC(=O)c3cccc(C)c3)cc2)C1 (stereo not given)	-7	.	10986	.	.	.	-41
CC1Sc2ccc(S(=O)(=O)N3CCC(C(=O)N(C)Cc4ccccc4)CC3)cc2NC1=O (stereo not given)	-2	0.7	5842	11	8	6	-8
Cc1nc2ccc(C(=O)N3c4ccccc4CC3C)cc2s1 (stereo not given)	7	2.9	3281	1	5	4	-52
CC(C)C(=O)NC(Nc1ccc(S(N)(=O)=O)cc1)C(Cl)(Cl)Cl (stereo not given)	8	0.9	2518	6	9	-2	-27
CC(=O)c1c(C)[nH]c(C(=O)Nc2cccc(S(=O)(=O)N(C)c3ccccc3)c2)c1C	3	9.5	3625	12	6	-10	2

Entries of single compounds as entered above:
Entry for CC1Sc2ccc(S(=O)(=O)N3CCC(C(=O)N(C)Cc4ccccc4)CC3)cc2NC1=O (stereo not given) = BJeLR viability: -2; RN4220 kill: 0.7; Bead autofluor: 5842; Mtb hypoxia rep: 11; Mtb hypoxia rep growth: 8; ugtP null kill: 6; PrP UTR inh: -8
Entry for Cc1ccccc1N=C1SCC(=O)N1Cc1ccccc1 = BJeLR viability: 0; RN4220 kill: 4.4; Bead autofluor: 2423; Mtb hypoxia rep: 4; Mtb hypoxia rep growth: 11; ugtP null kill: 16; PrP UTR inh: -7

Next results.
SMILES	BJeLR viability	RN4220 kill	Bead autofluor	Mtb hypoxia rep	Mtb hypoxia rep growth	ugtP null kill	PrP UTR inh
CCCCCNC(=O)CN(c1ccc2c(c1)OCO2)S(C)(=O)=O	-6	-0.2	20699*	3	11	5	-39
CN1CCN(c2ncnc3scc(-c4ccccc4Cl)c23)CC1	0	3.7	2825	-3	0	0	19
Cc1c(C(=O)N2CCOCC2)[nH]c2ccc(OCc3ccccc3)cc12	-2	11	7134	18	13	-3	-6
CCN(CC)C(=O)Cn1cc(SCC(=O)NC)c2ccccc21	-13	-0.4	4147	0	2	3	3
CCCOc1ccccc1Nc1nnc(C)c(=O)[nH]1	3	2.3	21083*	-1	12	4	-3
C=CCC1(CC=C)CCCN1C(=O)CC1C(=O)NCCN1Cc1cc(OC)cc(OC)c1 (stereo not given)	2	20	4432	10	10	10	-29
COc1ccc(CCNc2oc(Cc3cccc4ccccc34)nc2C#N)cc1OC	1	0.8	3533	-7	6	-18	-2
Cc1ccc(O)c(-c2cc(C(F)(F)C(F)F)nc(-c3ccccc3)n2)c1	1	-1.9	2114	.	.	2	16
CCOC(=O)C1CCN(C(=O)c2cc3ccccc3oc2=O)CC1	29	0.1	5997	-2	-3	-8	4
Cc1ccc(CN2C(=O)c3ccccc3NC2c2cc(Br)ccc2O)cc1 (stereo not given)	-1	-5.0	3695	-3	1	31	-7
CCOC(=O)c1ccc(NC(=O)NC2CC3CCC(C2)N3Cc2nnnn2Cc2ccco2)cc1 (stereo not given)	-1	2.4	3187	-3	4	0	-1
O=C(COC(=O)c1cccc([N+](=O)[O-])c1)NCC1CCCO1 (stereo not given)	9	0.0	2366	-7	-8	8	-21
CC(=NNC(=O)CNc1ccc(C)cc1)c1ccc(Br)s1	.	-0.5	.	4	8	-22	.
O=C(COC(=O)C1CC2C=CC1C2)Nc1ccc2c(c1)OC(F)(F)O2 (stereo not given)	3	4.3	16493*	10	12	1	-26
CC1(C)Cc2c(sc(NC(=O)/C=C/C(=O)O)c2C#N)CO1	3	2.2	3445	2	4	3	-20
COc1cccc(CC(=O)OCC(=O)NCC(=O)Nc2cccc(C)c2C)c1	-13	3.5	?	-2	-6	3	-5
CC(C)(C)NC(=O)CSc1nnc(-c2ccncc2)n1Cc1ccccc1	0	4.4	4009	7	11	4	-17
C=CCn1c(NCc2ccc(OC)cc2)nc2ccccc21	-5	2.4	3561	0	17	11	-21
O=C(CCc1nc2ccccc2c(=O)[nH]1)N1CCCc2ccccc21	-3	5.5	4914	4	6	8	-26
CCCCn1c(N)c(S(=O)(=O)c2ccc(C)cc2)c2nc3ccccc3nc21	-8	-1.5	2848	-2	2	-18	-4
N#C/C(=C\c1ccc[nH]1)C(=O)NCC1CCCO1 (stereo not given)	-9	1.9	6075	-2	2	0	-29
Cn1cccc1C=NNC(=O)C12CC3CC(CC(C3)C1)C2	.	2.7	.	10	13	-1	.
Cn1c(=O)c(=O)n(C)c2cc(S(=O)(=O)N3CCN(C4CCCCC4)CC3)ccc21	-2	3.7	6273	5	9	11	-13
O=C(COC(=O)c1ccc(Br)o1)NCC(=O)Nc1ccc(F)cc1	.	4.6	3356	9	4	2	-18
O=S(=O)(c1ccccc1)N(Cc1ccc(Cl)cc1)c1ccncc1	-4	3.5	4008	14	6	15	-6
CCNC(=O)COC(=O)C=Cc1cccc([N+](=O)[O-])c1	.	7.2	.	14	7	-5	.
COc1ccccc1CCNC(=O)C(=O)NCC1OCCN1S(=O)(=O)c1ccc(C)cc1 (stereo not given)	4	-15	5699	12	14	-3	-21
Cc1ccc(C)c(NC(=O)CN2C(=O)c3ccccc3C2=O)c1	-3	-0.7	4566	6	2	7	.
CCc1nnc(NC(=O)Cn2c(=O)oc3ccccc32)s1	-1	2.7	3518	1	7	2	-11
O=C(O)COc1ccccc1C=NNC(=O)CSc1nnc(-c2ccc(Cl)cc2)n1C1CCCCC1	.	5.2	.	7	3	-3	.
Nc1ccc(-n2nnnc2CN2CCOCC2)cc1	12	3.4	2462	13	11	6	-18
Cc1ccc(C)c(NC(=O)COC(=O)CC2c3ccccc3CCN2S(=O)(=O)c2ccc(F)cc2)c1 (stereo not given)	6	2.5	3067	-2	-5	-6	-31
S=C(NCc1ccc(Cl)cc1)NC12CC3CC(CC(C3)C1)C2	-10	18	11595	.	.	32	.
O=C(NCn1cnccc1=O)c1ccccc1	15	0.4	23239*	-1	0	2	-14
COc1cccc(CCNC(=O)CCCC(=O)c2ccccc2)c1	18	1.8	3765	12	11	0	-14
O=C(Nc1ccc(Cl)cn1)c1cccc(F)c1	43	-1.9	3180	.	.	6	-168

Two entries from above, with values under each structure.
Below each compound: BJeLR viability	RN4220 kill	Bead autofluor	Mtb hypoxia rep	Mtb hypoxia rep growth	ugtP null kill	PrP UTR inh
> N#C/C(=C\c1ccc[nH]1)C(=O)NCC1CCCO1 (stereo not given)
    -9	1.9	6075	-2	2	0	-29
> S=C(NCc1ccc(Cl)cc1)NC12CC3CC(CC(C3)C1)C2
    -10	18	11595	.	.	32	.

(more compounds)
SMILES	BJeLR viability	RN4220 kill	Bead autofluor	Mtb hypoxia rep	Mtb hypoxia rep growth	ugtP null kill	PrP UTR inh
Cc1ccc(-c2nnnn2CS(=O)(=O)c2ccccc2)cc1	9	4.5	6529	12	14	4	-19
COc1ccc(-c2nc(CS(=O)CC(=O)NC3CCC(C)CC3)c(C)o2)cc1OC (stereo not given)	-10	2.5	4230	13	5	2	-55
C=C(C)CNC(=S)N=c1scc(C)n1CC	.	7.4	.	3	10	-3	.
O=C(CCCN1C(=O)S/C(=C\C=C\c2ccccc2)C1=O)Nc1ccc(O)cc1	-5	15	6082	10	6	3	-39
CCOC(=O)N1CCN(C(=O)CCN2C(=O)/C(=C\c3ccccc3OC)SC2=S)CC1	-5	0.4	6040	5	8	3	-3
Clc1ccc(CNc2ccc3nnc(-c4ccccc4)n3n2)cc1	7	1.8	5905	2	8	8	-14
O=C(Nc1ccc(F)cc1F)C1CCCN1S(=O)(=O)c1ccc(-c2ccc(=O)[nH]n2)s1 (stereo not given)	6	6.8	.	-5	-4	-3	-20
FC(F)(F)c1nc(NCc2cccnc2)c2ccccc2n1	-1	3.2	4417	-13	3	3	-3
CCNc1cc2n(c(=O)n1)CCc1cc(OC)c(OC)cc1-2	6	3.2	4389	5	3	3	-58
CCOc1ccccc1N1CCN(CC(O)COC2CCCc3ccccc32)CC1 (stereo not given)	-6	-6.6	3737	-3	5	-6	-11
CC(=NCCN1CCCCC1)c1c(O)n(Cc2ccccc2)c(=O)[nH]c1=O	-6	0.4	23910*	0	7	2	-6
Cc1nnc(SCc2ccc(Cl)cc2)nc1/C=C/N(C)C	9	2.6	2245	8	7	-6	-21
COc1ccccc1-n1ccn(CC(=O)Nc2ccc(C)cc2Cl)c(=O)c1=O	-10	3.9	5452	3	3	-1	-8
S=C(Nc1cccc(Cl)c1)Nc1ccc2cn[nH]c2c1	0	0.5	8882	4	2	4	-12
Cc1cccc2c1N(C)C(=O)C2=O	-3	2.7	4286	-1	13	-2	-45
O=C(Nc1ccc(Cl)c(Cl)c1)Oc1ccc(NC(=O)c2ccco2)cc1	-2	74	2530	-5	-3	79	-14
COc1ccccc1NC(=O)CSc1nnc(NC(=O)C2CCC2)s1	1	-0.8	5603	-1	0	12	-3
CCCCNC(=O)Nc1nnc(C(C)(C)C)s1	0	5.7	6211	16	12	7	-39
CCCNC(=O)c1ccc(Cl)cc1Cl	-2	.	2960	.	.	.	4
C[C@@H]1C[C@H]2[C@@H]3CCC4=CC(=O)C=C[C@]4(C)[C@@]3(F)[C@@H](O)C[C@]2(C)[C@H]1C(=O)CO	-27	.	4298	.	.	.	13
CCN(CC)c1ccc(C=NNC(=O)c2nnn(-c3nonc3N)c2-c2ccc(C)cc2)cc1	.	0.1	.	1	6	14	.
CCN(Cc1ccncc1)C(=S)NCc1ccccc1	-19	0.9	4314	-6	-1	2	-4
CC(=O)Nc1ccc(S(=O)(=O)N2CCN(S(=O)(=O)c3cccs3)CC2)cc1	.	2.5	6052	6	1	5	-21
O=C(Nc1ccc(NC(=O)c2sc3ccccc3c2Cl)cc1)c1ccco1	15	.	2775	.	.	.	-35
O=C(OCC(=O)N1CCOCC1)c1ccc(Br)cc1	-6	4.8	2876	12	-4	5	-8
COc1cc(C)ccc1OCc1cc(C(=O)NCCN2CCOCC2)no1	5	3.7	5570	6	6	5	-37
Cc1ccc(/C=N/n2c(C3CCCCC3)n[nH]c2=S)o1	6	.	1932	.	.	.	-16
C[C@@H]1CCC(=O)N(CC[C@H](Sc2ccccc2)c2ccccc2)CC1	6	.	3089	.	.	.	-6
CCC/C(=N/NC(=O)c1ccc2c(c1)OCO2)c1cccs1	0	.	10967	.	.	.	-24
CC1=C(C)[N+](=O)C2CCCCC2N1[O-] (stereo not given)	4	-3.4	17133*	-5	-5	1	1
O=C(NN=Cc1ccccc1[N+](=O)[O-])C(=O)N1CCCC1	.	3.6	.	7	0	10	.
O=C(COc1ccc(F)cc1)Nc1nnc(-c2ccncc2)s1	-13	7.2	18059*	7	2	11	-19
CC1=Nc2ccc3ccccc3c2C1(C)C	2	8.4	8844	5	3	1	-24
CC(NC(=O)Nc1ccc([N+](=O)[O-])cc1)C(c1ccccc1)N1CCOCC1 (stereo not given)	6	-2.2	4132	0	8	4	-21
Cc1ccc(CNc2ccc(N3CCOCC3)c(Cl)c2)cc1	-4	4.1	3871	9	4	23	-34
CCn1ncc(Br)c1C(=O)Nc1ccc(C(=O)OC(C)C)cc1	4	-1.5	4722	.	.	7	-16
COc1ccc(N2CCN(C3CC(=O)N(C)C3=O)CC2)cc1 (stereo not given)	-1	4.8	3102	8	5	8	-12
CCn1c(/C=C/c2cc(Br)ccc2O)nc2ccccc2c1=O	-7	4.9	3775	5	4	-9	-30
CCN(CC(=O)N1CCCC1)S(=O)(=O)c1ccc(F)cc1	-5	1.4	2985	4	-1	2	-3

Assay outcomes deposited in PubChem BioAssay by several laboratories.
